Compound activity (PubChem BioAssay)
VACV mCherry inh: vaccinia inhibition (mCherry reporter); AID 720579; hit rate 0.63% among 310,000; Vaccinia virus mCherry reporter infection, fluorescence; about a quarter of the inactives have no number; Potency, µM (doses to about 36.5 µM), inactives show at the highest dose activity change, negative = inhibition, hits mostly inhibitors; active = well fitted inhibition curve with a large enough effect; inconclusive = small, poorly fitted or top-dose-only effect; inactive = no such curve, though single readings can be large or run the other way; tested in A549 cells; further: nearly all actives have a fitted effect of over 35% in size; inactives centre near -10
VACV Venus inh: vaccinia inhibition (Venus reporter); Vaccinia virus Venus reporter expression, fluorescence; Potency, µM (titrated, usually from 36.5 µM), for the others: at the top dose activity change, negative = inhibition, most hits filed as inhibitors; hit rate 0.46% among 330,000; AID 720580; active means well fitted inhibition curve with a large enough effect; inconclusive means small, poorly fitted or top-dose-only effect; inactive means no such curve, though single readings can be large or run the other way; tested in A549 cells; further: nearly all actives have a fitted effect of over 30% in size; inactives centre near -10
Active calls of the source: *; i = inactive; ? = inconclusive; / = no result given; & = joins results of further samples; [ ] = another dose, or the depositor's remark. On the % scale 0 is the no-effect control and ±100 the full control effect; potency means the concentration at half of the fitted maximal effect.

SMILES	VACV mCherry inh	VACV Venus inh
Cc1c(Cl)c([N+](=O)[O-])nn1CC(=O)N1CCN(C23CC4CC(CC(C4)C2)C3)CC1	?	-14%
COc1ccccc1Cc1c(-c2ccc(C#N)cc2)nc2ccc(C)cn12	-14%	-12%
Cc1ccc(CN2CCCn3nc(C(=O)NCc4ccc(OC(C)C)cc4)cc3C2=O)cc1	-7%	-18%
O=C(Nc1ccc(S(=O)(=O)NCc2ccccc2)cc1)c1ccc(Br)o1	/	-29%
O=C(Nc1ccc(NC(=O)C2CCCCC2)nc1)c1ccccn1	-7%	-6%
CCN(CC)S(=O)(=O)c1ccc(Cl)c(C(=O)NC)c1	i	-5%
O=C(N=C1SC2CS(=O)(=O)CC2N1Cc1ccc(Cl)cc1)C1CC1 (configuration not stated)	-22%	-11%
CCCCCCCOC(=O)C[N+](C)(C)CCOC1CC2CCC1(C)C2(C)C (configuration not stated)	i	?
CN(C)CC(C)(C)CNS(=O)(=O)c1cccc(Cl)c1Cl	25%	22%
O=C(NCc1nnc2n1CCN(Cc1cccc(Cl)c1)CC2)c1cccc(F)c1	-5%	0%

A stretch of the results above, as a working copy:
SMILES	VACV mCherry inh	VACV Venus inh
CN(C)CC(C)(C)CNS(=O)(=O)c1cccc(Cl)c1Cl	25%	22%
O=C(NCc1nnc2n1CCN(Cc1cccc(Cl)c1)CC2)c1cccc(F)c1	-5%	0%

Reformatted with each value named: entries from further up
O=C(Nc1ccc(NC(=O)C2CCCCC2)nc1)c1ccccn1
  VACV mCherry inh: -7%
  VACV Venus inh: -6%

CCN(CC)S(=O)(=O)c1ccc(Cl)c(C(=O)NC)c1
  VACV mCherry inh: i
  VACV Venus inh: -5%

(cont.)
SMILES	VACV mCherry inh	VACV Venus inh
Cc1ccc(S(=O)(=O)N2CCN(c3ccc4nnc(-c5ccccc5)n4n3)CC2)cc1	i	?
Cc1ccc(C(=O)N/C(=C\c2cccs2)C(=O)N2CCN(C)CC2)cc1C	i	-15%
CCOC(=O)c1ccc2c(c1)nc(SCC(=O)N1CCOCC1)n2CC	i	-14%
N#Cc1cc(-c2ccccc2)c[nH]c1=O	-1%	-5%
CCC(=O)Nc1c(C(=O)N2CCCCCC2)cnn1-c1ccc(C)c(C)c1	-11%	-7%
Cc1cc(C)cc(OCC(=O)Nc2cccc3cccnc23)c1	6%	6%
CCOc1cc(/C=N/NC(=O)Nc2ccccc2)ccc1O	-19%	-21%
CN(C)c1ccc(-c2sc(Nc3ccccc3)n[n+]2-c2ccc(F)cc2)cc1	0%	-17%
O=C1C2CC=CCC2C(=O)N1c1ccc(NCCc2ccc(O)cc2)c([N+](=O)[O-])c1 (configuration not stated)	-30%	-17%
COc1cccc(-c2ccc(NC(=O)C3CCCN(CCCn4cccn4)C3)cc2)c1 (configuration not stated)	?	-24%
CCCn1cc(SCC(=O)Nc2cc(C)on2)c2ccccc21	-1%	-12%
CCOc1ccc(OCc2ccc(C(=O)NCc3cccnc3)o2)cc1	/	-15%
CC(C)(C)NC(=O)c1sccc1C(=O)O	-13%	-5%
Cn1c(=O)c2cc(C(=O)NCCCN3CCN(c4cccc(Cl)c4)CC3)sc2c2ccccc21	?	?
NCCc1c[nH]c2ccc(OCc3ccccc3)cc12	i	-17%
COc1cccc(N2C(=O)NC(=O)C3(Cc4cc(C)ccc4N(C)C3)C2=O)c1 (configuration not stated)	/	-4%
CC(=O)Nc1nc(-c2ccc3ccccc3c2)cs1	0%	?
COc1ccccc1C(=O)Nc1nnc(S(=O)(=O)N2CCCCCC2)s1	-13%	-20%&-3%
COc1ccc(NC(=O)CNc2cccc(C#N)c2)cc1Cl	i	-8%
COCCNc1nc(C)cc(-c2cc(C(=O)Nc3ccccc3)on2)n1	1%	-10%
CON1C(=O)C(=O)N(OC)C2CCCCCC21 (configuration not stated)	i	-1%
O=C(O)CSc1nnc2c(n1)[nH]c1ccccc12	0%	-7%
O=C(/C=C/Nc1ccccc1F)c1cccs1	-13%	-10%
O=C(CNC(=O)c1ccccc1F)NCCc1ccc(Cl)cc1	-4%	0%
COc1ccccc1-c1cc(C(=O)NN)[nH]n1	-5%[7.34 µM]	-7%[7.34 µM]
CC1CCN(C(=O)C2(NC(=O)Nc3cccc(F)c3)CCCCC2)CC1	/	-7%
COc1cccc(C(c2c(O)cc(C)n(Cc3ccco3)c2=O)N2CCC(C)CC2)c1 (configuration not stated)	-9%	-9%
O=C(O)c1ccc(S(=O)(=O)c2ccc3c(c2)C(=O)N(c2ccc(Br)cc2)C3=O)cc1	-2%	-4%
CC1=C(C(=O)N2CCOCC2)CC(CC(=O)NC2CC2)C(=O)N1CCC1=CCCCC1 (configuration not stated)	26%	-10%
CC(=O)Nc1ccc(NC(=O)C2(C)Cc3c(-c4ccc(NC(C)=O)cc4)ccnc3O2)cc1 (configuration not stated)	i	6%

Whole records as entered above:
Listed for O=C(O)c1ccc(S(=O)(=O)c2ccc3c(c2)C(=O)N(c2ccc(Br)cc2)C3=O)cc1 : VACV mCherry inh: -2%; VACV Venus inh: -4%
Listed for CC1=C(C(=O)N2CCOCC2)CC(CC(=O)NC2CC2)C(=O)N1CCC1=CCCCC1 (configuration not stated) : VACV mCherry inh: 26%; VACV Venus inh: -10%
Listed for CON1C(=O)C(=O)N(OC)C2CCCCCC21 (configuration not stated) : VACV mCherry inh: i; VACV Venus inh: -1%

More entries follow.
SMILES	VACV mCherry inh	VACV Venus inh
COc1ccccc1C(O)(C(=O)N(NC(C)=O)c1ccccc1)c1ccccc1OC	i	1%
CSc1ncc(C(=O)NCc2cccc(C)c2)c(-c2ccccc2)n1	-14%	-9%
C/C(=N\NC(=O)c1cccc(S(=O)(=O)N2CCCCC2)c1)c1ccc(C)o1	i	-4%
CC[C@]12c3[nH]c4ccccc4c3CCN1C(=O)C(CC(=O)NCCc1ccccn1)C[C@@H]2C(=O)N1CCN(C(=O)C2CC2)CC1 (some centres not stated)	-16%	-14%
O=C(Cn1cnc2sc(-c3ccccc3)cc2c1=O)NCc1ccco1	-27%	?
CCC(=O)Nc1ccc(C(=O)Nc2cccc(C)n2)cc1	6%	-1%
Cn1cc(CN(Cc2ccccc2)C[C@@H]2CCC(=O)N2)c(-c2ccccc2F)n1	i	-9%
COc1ccccc1-n1nnnc1S(=O)(=O)Cc1ccc(Cl)cc1	/	-29%
CC1=C(C(=O)Nc2cccc(F)c2)C(c2ccsc2)C2=C(CC(C)(C)CC2=O)N1 (configuration not stated)	?	?
O=C1c2cc(Br)ccc2OC2C=CC=CC12 (configuration not stated)	i	-9%
COc1cc(C(=O)Nc2ccc(C)c(S(=O)(=O)N(C)C)c2)ccc1OCC(=O)N1CCOCC1	-7%	-8%
Cc1ccc(CC(=O)Nc2nc3ccccc3s2)cc1	-25%	-15%
COC(=O)[C@@]1(C(C)C)N=C(c2cc(OC)c(OC)c(OC)c2)[C@]2(O1)C(=O)N(C)c1ccccc12	6%	3%
CCCc1cc(NC(=O)CCl)n(-c2ccccc2)n1	?	-20%
COc1ccc(-n2c(C)nc3c(cnn3-c3ccc(F)cc3)c2=O)cc1	-17%	-15%
Cc1ccccc1NC(=O)c1[nH]cnc1C(=O)NN	-19%	-14%
Cc1ccc(-c2onc3ccc(C(=O)O)cc23)cc1	-26%	-28%
Cn1ccnc1SCC(=O)N(C1CCCCC1)C1CCCCC1	-7%	-4%
O=C(CCC(=O)c1cccs1)OCC(=O)c1ccccc1	-4%	-5%
Cc1ccc(CC(CC(=O)O)C(=O)NCc2ccccc2)cc1 (configuration not stated)	-7%	-4%
CCS(=O)(=O)N1CCC(C(=O)Oc2ccccc2Br)CC1	i	-18%
Cc1ccc(C)c(S(=O)(=O)NC(CC(C)C)C(=O)O)c1 (configuration not stated)	-2%	-12%
O=C(C=CC=Cc1ccccc1)c1ccc([N+](=O)[O-])cc1	-15%	-22%
Brc1ccc(OCc2nnc3n2CCC3)cc1	i	-15%
CC(C)(C)c1ccc(OCc2ccc(C(=O)N3CCOCC3)o2)cc1	-23%	?
S=C(NCCN1CCOCC1)Nc1ccc(Cl)cc1	i	-1%
COc1ccc(-c2nc3cc(F)ccc3cc2CN(C(=O)c2ccc3c(c2)OCO3)C2CC2)cc1	0%	-5%
O=C(Nc1c(Cl)cc(Cl)cc1C(=O)NCc1cccnc1)c1ccc(Cl)cc1Cl	/	3%
COc1ccc(-c2cc(OC(=O)c3ccccc3C)c3c(C)oc(C)c3c(=O)c2)cc1	-9%	43%[activator]
COc1ccccc1CNc1cc(C)ccn1	i	-6%
CC(C)CN(C(=O)COC(=O)Cc1c[nH]c2ccccc12)c1c(N)n(Cc2ccccc2)c(=O)[nH]c1=O	-9%	-12%
CCn1c(=O)ccc2cc([N+](=O)[O-])ccc21	-11%	-3%
O=C(COc1ccc(/C=N/NC(=O)c2ccncc2)cc1)Nc1ccccc1	-1%	-8%
Nc1nc2c3ccccc3nc(C3CC3)n2n1	/	-14%
O=C(NCCN1CCC(n2c(=O)[nH]c3ccccc32)CC1)c1cccnc1Cl	1%	1%
COc1cc(C(=O)NCCC2=CCCCC2)ccc1OC1CCN(C(C)=O)CC1	i	-19%
CCOc1ccc(OCCC(=O)Nc2ccccc2C(=O)NC2CC2)cc1	-10%	-11%
Cc1nn(Cc2ccc(C(=O)Nc3nc4c(C)cccc4s3)o2)c(C)c1Br	/	-8%
CC1CCN(CCCNS(=O)(=O)c2cc(Br)cc3c2N(C(=O)C2CC2)CC3)CC1	-14%	-17%
Cc1c(F)cccc1NS(=O)(=O)c1ccc(OCCNS(C)(=O)=O)cc1	-1%	-27%
COC(=O)Cn1cc(C(=O)OC)c2ccccc21	-23%	-12%
O=C(CC1Oc2ccccc2NC1=O)NCc1ccc(Cl)cc1 (configuration not stated)	12%	-12%
O=S(=O)(NCc1cc(-c2ccc(Cl)cc2)no1)c1ccccc1	?	-22%
CCOC(=O)c1cc(S(=O)(=O)N2CC(C)CC(C)C2)cn1C (configuration not stated)	i	-8%
O=C(COc1ccc2ccccc2c1Br)NC(=S)Nc1cccc(CO)c1	-1%	-19%
O=C(NCc1ccc(F)cc1)C1CCN(C(=O)Nc2ccc(F)cc2)CC1	-3%	-7%
CCc1ccc(NC(=O)N2CCN(C(=O)c3nsc4ccccc34)CC2)cc1	-12%	-13%
O=C(N/N=C/c1cn(-c2ccccc2)nc1-c1cc2ccccc2o1)c1c[nH]c2ccccc12	-16%	-23%
NC(=O)CCn1c(C(=O)c2ccc(Cl)cc2)c2ccccc2[n+]1[O-]	-7%	1%
CCSc1nnc(NC(=O)C2Cc3ccccc3CN2S(=O)(=O)CC)s1 (configuration not stated)	-11%	-12%
CSCC[C@H](NC(=O)CCCn1nnc2ccccc2c1=O)C(=O)O	-9%	-7%
O=C(O)c1ccc(/C=C/c2ccc3cccc(O)c3n2)cc1	-22%	-15%
CC(=O)Nc1nc(CC(C)C)cc(-c2ccco2)c1C#N	-5%	-2%

Exported with two lines to a compound: part of the list above.
Values in the order: VACV mCherry inh, VACV Venus inh
- COC(=O)Cn1cc(C(=O)OC)c2ccccc21
  -23%, -12%
- O=C(CC1Oc2ccccc2NC1=O)NCc1ccc(Cl)cc1 (configuration not stated)
  12%, -12%
- O=S(=O)(NCc1cc(-c2ccc(Cl)cc2)no1)c1ccccc1
  ?, -22%
- CCOC(=O)c1cc(S(=O)(=O)N2CC(C)CC(C)C2)cn1C (configuration not stated)
  i, -8%
- O=C(COc1ccc2ccccc2c1Br)NC(=S)Nc1cccc(CO)c1
  -1%, -19%
